Bioassay records from PubChem.
Rango complex inh – Rango-importin beta binding inhibition. Rango CFP/YFP FRET sensor + importin beta, 45 min. Potency, µM (series often up to 92.2 µM), for the others: top-dose inhibition of complex formation. 340,000 tested, 0.031% active; active = rising FRET ratio curve, often small or poorly fitted; inconclusive = mostly compound fluorescence or quenching in the first reads; inactive = flat curves in all reads;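 further: potency means the concentration at half of the fitted maximal effect; 0% = DMSO wells and 100% = buffer wells lacking importin beta; nearly all actives have a fitted effect of over 15% in size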
Target sequence (Q14974 whole entry, looked up): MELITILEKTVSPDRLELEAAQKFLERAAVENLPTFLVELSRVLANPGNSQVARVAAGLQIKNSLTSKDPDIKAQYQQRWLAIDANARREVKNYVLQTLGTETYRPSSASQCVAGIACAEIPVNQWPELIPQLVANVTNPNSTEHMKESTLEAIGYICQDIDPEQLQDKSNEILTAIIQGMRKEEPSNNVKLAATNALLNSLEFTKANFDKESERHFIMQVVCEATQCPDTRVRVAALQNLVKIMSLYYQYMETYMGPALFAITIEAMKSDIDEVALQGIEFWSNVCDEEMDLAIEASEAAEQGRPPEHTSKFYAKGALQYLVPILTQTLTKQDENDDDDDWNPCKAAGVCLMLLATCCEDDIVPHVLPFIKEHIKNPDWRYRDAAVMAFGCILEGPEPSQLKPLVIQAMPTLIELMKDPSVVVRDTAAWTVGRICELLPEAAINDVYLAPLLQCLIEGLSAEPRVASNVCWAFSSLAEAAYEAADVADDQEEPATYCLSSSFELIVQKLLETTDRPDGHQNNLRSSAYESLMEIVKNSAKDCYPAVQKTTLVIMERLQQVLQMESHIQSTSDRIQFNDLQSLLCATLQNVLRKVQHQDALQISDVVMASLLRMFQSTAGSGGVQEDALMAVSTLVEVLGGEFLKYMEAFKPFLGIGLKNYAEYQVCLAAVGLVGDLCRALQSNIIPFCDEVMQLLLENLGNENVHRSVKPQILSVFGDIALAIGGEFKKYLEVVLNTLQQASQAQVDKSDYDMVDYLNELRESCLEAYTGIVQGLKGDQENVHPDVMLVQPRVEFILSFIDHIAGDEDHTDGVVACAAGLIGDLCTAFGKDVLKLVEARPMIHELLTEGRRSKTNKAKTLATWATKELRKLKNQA
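Inhibition scored from the CFP 486 nm/YFP 530 nm FRET ratio 45 min after adding 0.125 microM importin beta to 50 nM Rango biosensor preincubated 5 min with compound (room temperature, PBS with DTT, Tween-20, BSA). No-importin wells as positive control.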
Rango release inh – inhibitors of RanGTP-induced Rango-importin beta complex dissociation. O95149+P62826. Biochemical FRET Rango-importin beta, RanGTP-induced dissociation. Potency, µM (highest dose often 46.1 µM), for the others: top-dose activity change, negative = inhibition. 340,000 tested, 0.071% active. AID 540253; active means falling FRET ratio curve, often poorly fitted, with flat reads before Ran was added; inconclusive means other falling curves, or compound fluorescence or quenching; inactive means flat or rising ratio curve;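 further: potency means the concentration at half of the fitted maximal effect; % of control where 0% means no effect; nearly all actives have a fitted effect of over 45% in size; -100% = wells without RanGTP and RCC1; the record marks most hits as doubtful in a second field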
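Compounds sat 5 min at room temperature with 0.1 uM Rango biosensor plus 0.25 uM importin beta, then FRET pre-read. RanGTP-RCC1 (0.6 uM Ran, 2mM GTP, 0.2 uM RCC1) added for 45 min, and the CFP/YFP post-read measured blocked complex dissociation.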
miR-21 FLuc – raises the signal of a miR-21 reporter; HeLa miR-21 FLuc reporter, luciferase, 48 h; Potency, µM (highest dose often 38.3 µM), for the others: top-dose reporter change, positive = more light; 340,000 tested, under 10 active; active = well fitted rising curve with a large enough effect; inconclusive = small, poorly fitted or top-dose-only effect; inactive = no such curve, though single readings can be large or run the other way;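 further: % of control where 0% means no effect; miR-21 action dims this reporter so a rising signal means less miR-21 action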
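HeLa cells endogenously expressing miR-21, stably carrying CMV-driven firefly luciferase with a downstream miR-21 binding site, 2000 cells/well. Titrations up to approximately 40 uM, 48 hours; luciferase luminescence read.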
GLA inh pH 4.5 – blocks human alpha-galactosidase A at pH 4.5; purified enzyme, 4-MU-alpha-Gal fluorescence, pH 4.5; activity change, negative = inhibition, % at 105 µM; 230,000 tested, under 10 active; AID 1467; inconclusive = small, poorly fitted or top-dose-only inhibition, or a rising curve; inactive = flat fitted curve, though single readings scatter; no compound was filed as active;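 further: 0% = full activity with enzyme and -100% = basal without enzyme; dose as in the result columns while the protocol names 77 µM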
Active calls of the source: *; u = inconclusive; x = not tested or not shown; & = joins results of further samples. These rows are one share of the data; rates above refer to the full screens.

SMILES | Rango complex inh | Rango release inh | miR-21 FLuc | GLA inh pH 4.5
O=C(c1cc(=O)[nH]c2ccccc12)N1CCN(c2cccc(C(F)(F)F)c2)CC1 | -0.2% | 3% | 9% | -10
CC(C)(O)C#Cc1ccc(CNC[C@H]2O[C@@H](n3cnc4c(N)ncnc43)[C@H](O)[C@@H]2O)s1 | -1.3% | 6% | x | x
N#Cc1ccc(S(=O)(=O)N2CCN(C(=O)C3CC(=O)N(c4ccc5c(c4)OCCO5)C3)CC2)cc1 (stereo not given) | 6.8% | -11% | x | x
Nc1nnn(CC(=O)N/N=C/C=C/c2ccccc2)n1 | 5.1% | 1% | -5% | 2
Cc1cnc(C(=O)OCC(=O)Nc2cccc(C)c2C)cn1 | 2.8% | 2% | x | x
COc1ccc(C2CC(=O)c3cnc(NC(=O)c4cc(OC)cc(OC)c4)nc3C2)cc1 (stereo not given) | -0.7% | -10% | -5% | -6
O=C(CCC1COc2ccccc2O1)NC1CCCCC1 (stereo not given) | -1.2% | -6% | -3% | 4
O=C(COc1ccccc1)NCc1ccco1 | 4.4% | -14% | x | x
CC1CN(C(=O)CCC(=O)NCCCc2ccccc2)c2ccccc2O1 (stereo not given) | 0.8% | 10% | -4% | x
Cc1nc(S(=O)(=O)c2cccc(Cl)c2)nc2c1CCC2 | 2.0% | -8% | -7% | 2
COc1cc(OC)c(C(=S)N2CCCC2)cc1OC | 0.0% | 5% | -7% | x
O=[N+]([O-])c1cc(-c2cnc3ccccc3n2)ccc1Oc1ccc(F)cc1 | -2.0% | -2% | -33% | 3
Cc1ccc(C(=O)NCCCNc2ccccc2[N+](=O)[O-])cc1 | 0.0% | -2% | -20% | 3
CCC(C)(C)NC(=O)C(c1ccc(OC)cc1)N(Cc1ccc(OC)cc1)C(=O)CCC(=O)Nc1cc(C)on1 (stereo not given) | 7.3% | 4% | -2% | x
O=C(OCC(=O)N1CCCC1)c1cc(Cl)ccc1Cl | 2.8% | 1% | -12% | x
CCSCc1nnc(SCC(=O)Nc2nc(C)cs2)n1C | x | x | 2% | 4
Cc1cc(C)c2nc(-c3ccncc3)cc(C(=O)N3CCN(Cc4ccccc4Cl)CC3)c2c1 | -4.5% | 1% | 13% | x
COc1ccc(CNCc2ccc3ccccc3c2)c(OC)c1 | -0.7% | -15% | 12% | x
COc1ccc(-n2c(SCC(=O)Nc3ccc(C(=O)O)cc3)nnc2-c2ccccc2)cc1OC | 0.7% | 2% | -3% | x
O=C(CSc1cn(CCNC(=O)c2cccs2)c2ccccc12)NCC1CCCO1 (stereo not given) | 1.1% | -1% | 5% | 5
COc1ccc(CNC(=O)CCc2nnc3ccc(NCCCN4CCCC4=O)nn23)cc1 | 2.0% | -8% | -1% | x
O=S(=O)(NCCc1csc(-c2cccnc2)n1)c1ccc(F)cc1 | u | -21% | -4% | x
O=C(c1cc2ccccc2o1)N1CCOCC1 | -0.1% | 12% | x | x
COc1ccc(OC)c(NC(=O)CC(NC(C)=O)c2ccccc2)c1 (stereo not given) | 3.5% | -2% | -3% | -2
O=C(CSc1n[nH]c(-c2cccnc2)n1)Nc1cccc(Cl)c1 | 1.7% | -3% | -2% | x
(listing goes on)
SMILES | Rango complex inh | Rango release inh | miR-21 FLuc | GLA inh pH 4.5
Cc1ccc(NC(=S)NCCc2ccccc2)nc1 | 1.8% | -6% | -35% | 1
Cc1nc(NC(=S)NC(=O)c2cccs2)sc1C(=O)N(C)C | -3.1% | 3% | -31% | -5
O=C(N/N=C/c1ccccc1O)C1CC(=O)N(c2ccc(Cl)cc2)C1 (stereo not given) | -1.2% | -21% | 25% | x
CC(=O)Nc1ccc(NC(=O)COc2ccc([N+](=O)[O-])cc2)cc1 | u | u | -3% | 2
CN(CCOc1ccccc1)CC(O)COCc1ccccc1F (stereo not given) | -1.8% | 0% | -4% | x
CCOC(=O)c1ccc(S(=O)(=O)Nc2cc(C(C)(C)C)no2)cc1 | -0.6% | 1% | -13% | u
O=C(Nc1ccccc1)Nc1nnc(Cc2ccc(F)cc2)s1 | u | -2% | 2% | x
COC(=O)c1cc(-c2ccc(OC)cc2)nc2nc(SC)[nH]c(=O)c12 | 2.1% | -8% | -18% | x
CSc1cccc(CN2CCC(CO)(Cc3cccc(C(F)(F)F)c3)CC2)c1 | -0.2% | 13% | 2% | -22
CNC(=O)CSc1nc(-c2ccccc2)c(-c2ccccc2)o1 | -1.2% | 0% | -4% | 7
Cc1ccc(OCC(=O)OCC(=O)Nc2sccc2C(N)=O)cc1C | -0.4% | 6% | -1% | 2
CN1CCN(C(=O)c2cnn3c(C(F)(F)F)cc(-c4ccc5c(c4)OCO5)nc23)CC1 | -3.0% | -21% | -4% | -12
CCOC(=O)N1CCC(NC(=O)C2CCCN(S(=O)(=O)c3cccnc3)C2)CC1 (stereo not given) | -0.6% | 36% | -3% | 1
O=C(CN1C(=O)COCC1=O)N1CCOCC1 | 0.1% | 1% | 1% | -1
COCCNC(=O)CN(C)S(=O)(=O)c1ccc(Br)cc1 | -2.7% | 2% | -4% | 1
CCn1cc(C(=O)NC(=S)Nc2sc3c(c2C(=O)OC)CCCCCC3)cn1 | 5.4% | -9% | -2% | 6
N#CC(=Cc1ccc(O)cc1)C(N)=C(C#N)C#N | u | u | x | x
CCOC(=O)CCc1c(C)c2ccc3c(c2oc1=O)CN(CCCO)CO3 | -0.6% | 0% | 0% | x
O=C(NCc1ccncc1)C(=O)Nc1nc(C23CC4CC(CC(C4)C2)C3)cs1 | 1.2% | 2% | 19% | -8
Cc1ccccc1NC(=O)c1sc(Cl)nc1C | 0.0% | -24% | 0% | 6
Cc1c(NC(=O)CSc2ncn[nH]2)c(=O)n(-c2ccccc2)n1C | 0.6% | -2% | -7% | -4
O=P(OCC1CC1)(c1ccccc1)c1ccccc1 | 1.8% | 23% | -7% | 0
Nc1c(C(=O)NCCc2ccc(Cl)cc2)sc2ccc(S(=O)(=O)N3CCCCC3)cc12 | x | x | 27% | -6
Cc1cc(C)cc(NS(=O)(=O)c2c(C(=O)N3CCOCC3)c(C)n(C)c2C)c1 | 2.5% | 0% | -1% | x
CC(=O)c1cccc(NC(=O)COc2nsnc2N2CCOCC2)c1 | -1.8% | 10% | 0% | 0
The results go on:
SMILES | Rango complex inh | Rango release inh | miR-21 FLuc | GLA inh pH 4.5
Cc1oc(-c2ccc(Cl)cc2)cc1C(=O)O | 0.3% | 9% | -38% | 4
Cc1ccc(SCCC(=O)N(C)CC(=O)Nc2c(C)cccc2C)cc1 | -1.0% | 13% | -6% | x
Cc1ccc(/C=C2/C(=O)ON=C2c2ccccc2)o1 | -3.0% | 2% | -18% | -5
COc1ccc(-c2cc(-c3ccccc3)nc(Cl)n2)cc1OC | 7.2% | 7% | 18% | x
Cc1cc(NC(=O)CN2C(=O)NC(C)(c3ccccc3Cl)C2=O)no1 (stereo not given) | -1.6% | -8% | x | x
COc1cccc(C2Oc3ccccc3C3CC(c4cccs4)=NN32)c1 (stereo not given) | u | -18% | -55% | 4
Cc1nc2nc(CSc3nc4ccccc4s3)cc(=O)n2[nH]1 | 1.3% | 2% | 0% | 3
COC(=O)c1ccc(OCC(O)CN2CCOCC2)cc1 (stereo not given) | -1.9% | -22% | -3% | x
CCc1ccc(NC(=O)CSc2nc3ccccc3c(=O)n2CCCN2CCC(C)CC2)cc1 | -0.3% | 2% | -18% | 0
Cc1ccc(CCN2CC(C(=O)NCCCN3CCN(C)CC3)CC2=O)cc1 (stereo not given) | -2.2% | -3% | -8% | -5
COc1ccccc1CNC(=O)COC(=O)c1cccc(S(=O)(=O)N2CCCCC2)c1 | u | 1% | -2% | x
O=C(NCC1(N2CCCCC2)CCCCC1)c1ccc(S(=O)(=O)N2CCCC2)cc1 | 3.4% | 1% | 0% | -5
O=C(c1ccco1)N(CCC(c1ccccc1)c1ccco1)Cc1ccc(F)cc1 (stereo not given) | 2.0% | -5% | 20% | -8
CC1CCN(C(=O)COC(=O)c2ccc3c(c2)OCCO3)CC1 | -4.2% | 7% | x | x
Cc1ccc(OCCCCCN2CCOCC2)c(Cl)c1 | 0.7% | -2% | x | x
CCc1ccc(N2CC(C(=O)N3CCCCCC3)CC2=O)cc1 (stereo not given) | 4.6% | 3% | -21% | x
O=C(c1ccc(C(F)(F)F)cc1)N1CCC(=O)N(C(COCc2ccccc2)Cc2ccccc2)CC1 (stereo not given) | 3.7% | 1% | 10% | 11
COc1ccc(C(=O)N/N=C\c2coc3ccc(Cl)cc3c2=O)cc1 | 2.6% | -21% | 15% | x
COc1cccc([C@@H]2CC=C(C(=O)O)[C@H](c3cccc(Cl)c3)N2S(=O)(=O)c2ccc(C)cc2)c1 | 3.8% | 0% | x | x
Cc1c(NC(=O)Nc2ccc(C(C)(C)C)cc2)c(=O)n(-c2ccccc2)n1C | 1.8% | 2% | 3% | x
COc1cc(OC)c(OC)cc1CNC(=O)c1ccc(COc2ccccc2)cc1 | -3.6% | 13% | 0% | x
Cc1ccc(CNn2cnnc2SCc2ccc(F)cc2)cc1 | -1.0% | -4% | 1% | 0
Cc1cccc(OC(C)C(=O)OCC(=O)Nc2sccc2C(N)=O)c1 (stereo not given) | -2.0% | -1% | x | x
O=C(CNC1CCCCC1)Nc1ccc([N+](=O)[O-])cc1C(=O)Nc1ccccc1F | 0.2% | 6% | 22% | 4
CCOC(=O)c1cccc(NC(=O)CCS(=O)(=O)c2cccs2)c1 | 2.7% | 10% | -12% | -5
More compounds follow.
SMILES | Rango complex inh | Rango release inh | miR-21 FLuc | GLA inh pH 4.5
COCc1[nH][nH]c(=O)c1C=Nc1ccc(Oc2ccccc2)cc1 | 4.9% | 3% | -7% | 0
C=CCn1c(SCC(=O)NCCc2ccccc2)nnc1C1CC1 | 0.5% | 8% | x | x
O=C1CCC(C(=O)OCC(=O)C23CC4CC(CC(C4)C2)C3)N1 (stereo not given) | -3.8% | 11% | -8% | 5
COc1ccc(NC(=O)Cn2c(=O)oc3ccccc32)cc1 | 0.0% | 10% | 2%&-2% | 5
Cc1nn(-c2ccccc2)c(=O)c2noc(C)c12 | -0.6% | u | -1% | -9
COc1ccccc1CNC(=O)COC(=O)c1ncc(Cl)c(Cl)c1Cl | 0.2% | 3% | x | x
CCOC(=O)[C@@H]1[C@H]2COc3cc(OC)ccc3[C@@H]2N2C(=O)N(c3ccc(C(F)(F)F)cc3)C(=O)[C@]12C | 1.3% | -1% | 2% | x
COc1ccc(Cl)cc1C(=O)Nn1c(-c2cccs2)nc2ccccc2c1=O | 3.8% | 17% | 2% | -8
COC(=O)C(Cc1c[nH]c2ccccc12)NC(=O)C(C)C (stereo not given) | u | -7% | 1% | 3

9 compounds already listed, sorted by count of non-hydrogen atoms, highest first:
SMILES | Rango complex inh | Rango release inh | miR-21 FLuc | GLA inh pH 4.5
CCOC(=O)[C@@H]1[C@H]2COc3cc(OC)ccc3[C@@H]2N2C(=O)N(c3ccc(C(F)(F)F)cc3)C(=O)[C@]12C | 1.3% | -1% | 2% | x
COc1cc(OC)c(OC)cc1CNC(=O)c1ccc(COc2ccccc2)cc1 | -3.6% | 13% | 0% | x
COc1ccc(Cl)cc1C(=O)Nn1c(-c2cccs2)nc2ccccc2c1=O | 3.8% | 17% | 2% | -8
COc1ccccc1CNC(=O)COC(=O)c1ncc(Cl)c(Cl)c1Cl | 0.2% | 3% | x | x
C=CCn1c(SCC(=O)NCCc2ccccc2)nnc1C1CC1 | 0.5% | 8% | x | x
Cc1ccc(CNn2cnnc2SCc2ccc(F)cc2)cc1 | -1.0% | -4% | 1% | 0
COc1ccc(NC(=O)Cn2c(=O)oc3ccccc32)cc1 | 0.0% | 10% | 2%&-2% | 5
COC(=O)C(Cc1c[nH]c2ccccc12)NC(=O)C(C)C (stereo not given) | u | -7% | 1% | 3
Cc1nn(-c2ccccc2)c(=O)c2noc(C)c12 | -0.6% | u | -1% | -9
